VACV mCherry inh = vaccinia inhibition (mCherry reporter). Vaccinia virus mCherry reporter infection, fluorescence; about a quarter of the inactives have no number. Potency, µM (series often up to 36.5 µM), for inactives: at the top dose activity change, negative = inhibition, actives largely listed as inhibitors. hit rate 0.63% among 310,000; active = well fitted inhibition curve with a large enough effect; inconclusive = small, poorly fitted or top-dose-only effect; inactive = no such curve, though single readings can be large or run the other way; tested in A549 cells; note: nearly all actives have a fitted effect of over 35% in size; inactives centre near -10
VACV Venus inh = vaccinia inhibition (Venus reporter); Vaccinia virus Venus reporter expression, fluorescence; Potency, µM (highest dose often 36.5 µM), inactives show at the highest dose activity change, negative = inhibition, actives largely listed as inhibitors; hit rate 0.46% among 330,000; AID 720580; active means well fitted inhibition curve with a large enough effect; inconclusive means small, poorly fitted or top-dose-only effect; inactive means no such curve, though single readings can be large or run the other way; tested in A549 cells; note: nearly all actives have a fitted effect of over 30% in size; inactives centre near -10
* marks the source's active call; other numbers are inactive results; & = joins results of further samples; [ ] = another dose, or the depositor's remark. % is set by controls: 0 for no effect and ±100 for the full control effect; potency is the fitted concentration of half-maximal effect. Compounds were not picked by outcome; any-hit rate near 0.87%.

Sample of the layout:
For CC(C)c1cc(C(F)(F)F)nc(NNc2nc(C(C)C)cc(C(F)(F)F)n2)n1 the results were VACV mCherry inh inactive and VACV Venus inh -12.5%.
`O=C(Cn1nc(N2CCN(c3ccccc3)CC2)ccc1=O)Nc1ccc(F)cc1F` gave VACV mCherry inh -6.6% and VACV Venus inh 0.0%.
O=S1(=O)CCOC[C@H](c2ccccc2)N1Cc1ccccc1 was read as VACV mCherry inh inconclusive and VACV Venus inh -14.6%&-11.7%.
`O=C(CCN1C(=O)C2C3C=CC(C3)C2C1=O)NC1CCCc2ccccc21` (configuration not stated) gave VACV mCherry inh -4.9% and VACV Venus inh -8.2%.
`Cc1ccc(C(=O)O/N=C/c2c(C)nn(C)c2Cl)cc1` gave VACV mCherry inh inactive and VACV Venus inh -6.8%.
Screening CC(=O)c1ccc(NC(=O)c2cc3sccc3n2Cc2ccc(F)cc2)cc1 returned VACV mCherry inh -13.2% and VACV Venus inh -11.1%.

All compounds of this part, previewed entries included:
For CC(C)c1cc(C(F)(F)F)nc(NNc2nc(C(C)C)cc(C(F)(F)F)n2)n1 the results were VACV mCherry inh inactive and VACV Venus inh -12.5%.
`O=C(Cn1nc(N2CCN(c3ccccc3)CC2)ccc1=O)Nc1ccc(F)cc1F` gave VACV mCherry inh -6.6% and VACV Venus inh 0.0%.
O=S1(=O)CCOC[C@H](c2ccccc2)N1Cc1ccccc1 was read as VACV mCherry inh inconclusive and VACV Venus inh -14.6%&-11.7%.
`O=C(CCN1C(=O)C2C3C=CC(C3)C2C1=O)NC1CCCc2ccccc21` (configuration not stated) gave VACV mCherry inh -4.9% and VACV Venus inh -8.2%.
`Cc1ccc(C(=O)O/N=C/c2c(C)nn(C)c2Cl)cc1` gave VACV mCherry inh inactive and VACV Venus inh -6.8%.
Screening CC(=O)c1ccc(NC(=O)c2cc3sccc3n2Cc2ccc(F)cc2)cc1 returned VACV mCherry inh -13.2% and VACV Venus inh -11.1%.
For O=C1NCC(Nc2ccccc2Cl)C(=O)N1 (configuration not stated) the results were VACV mCherry inh inactive and VACV Venus inh -6.0%.
CCCN(CCC)CCCNC(=O)c1ccc(CS(=O)(=O)c2c(Cl)cccc2Cl)o1 was read as VACV mCherry inh -1.5% and VACV Venus inh inconclusive.
For CC(Sc1nnc(-c2cccnc2)n1N)C(=O)N1CCOCC1 (configuration not stated) the results were VACV mCherry inh inactive and VACV Venus inh -11.7%.
For O=C1CC(Cc2ccccc2)C(=O)N1c1ncccn1 (configuration not stated) the results were VACV mCherry inh inactive and VACV Venus inh -10.9%.
Screening O=C(O)c1cc(-c2cccnc2)nc2ccccc12 returned VACV mCherry inh inactive[7.34 µM] and VACV Venus inh -1.1%[7.34 µM].
COC(CNC(=O)c1cccc2c1C(=O)N(Cc1cccnc1)C2)OC was read as VACV mCherry inh -15.5% and VACV Venus inh -1.4%.
`COc1ccc(N(CC(=O)N2CCCCCC2)S(=O)(=O)c2c(C)[nH]c(=O)[nH]c2=O)cc1` gave VACV mCherry inh inactive and VACV Venus inh -11.3%.
`CN1CCN(S(=O)(=O)c2ccc(NC(=O)c3cccc(S(=O)(=O)N4CCCC4)c3)cc2)CC1` gave VACV mCherry inh -3.2%[1.46 µM] and VACV Venus inh inconclusive.
CCC(C)NCCOc1ccc(C)cc1[N+](=O)[O-] (configuration not stated) was read as VACV mCherry inh -7.9% and VACV Venus inh -0.5%.
CS(=O)(=O)N1CCN(c2cccc(Cl)n2)CC1 was read as VACV mCherry inh -13.6% and VACV Venus inh -12.2%.
Screening CCOc1ccc(CCNC(=O)COn2nnc3ccc(S(=O)(=O)N4CCOCC4)cc32)cc1OCC returned VACV mCherry inh -5.9% and VACV Venus inh -8.3%.
For COC(=O)CSc1n[nH]c(-c2cccnc2)n1 the results were VACV mCherry inh inactive and VACV Venus inh -9.9%.
`Cc1ccc2[nH]c3nc(NN)nnc3c2c1` gave VACV mCherry inh -8.2% and VACV Venus inh -27.1%.
`CCCN1CNc2c(c(=O)[nH]c(=S)n2CCC(C)C)C1` gave VACV mCherry inh inactive and VACV Venus inh -11.7%.
`O=C(COc1ccccc1Cl)NCc1nc(-c2ccccc2)no1` gave VACV mCherry inh inactive and VACV Venus inh -17.7%.
Screening CC1CCc2sc3ncn4nc(C(=O)NCc5ccco5)nc4c3c2C1 (configuration not stated) returned VACV mCherry inh -10.5% and VACV Venus inh -7.0%.
Screening Cc1ccccc1NC(=O)CCCNC(=O)c1ccc(Cl)cc1 returned VACV mCherry inh -11.9% and VACV Venus inh -6.7%.
Screening CC(=O)c1cc(-c2ccccc2)n(CCC(=O)Nc2ccc(C(C)C)cc2)c1C returned VACV mCherry inh inactive and VACV Venus inh -15.2%.
For C[C@H]1CCCCO[C@H](CN(C)C(=O)C2CCCCC2)[C@@H](C)CN([C@@H](C)CO)C(=O)c2cc(NC(=O)NC3CCCCC3)ccc2O1 the results were VACV mCherry inh -17.4% and VACV Venus inh -29.7%.
`CSCCC(C(=O)NC(C)(C)C)n1c(-c2cccc(NC(C)=O)c2)nc2ccccc21` (configuration not stated) gave VACV mCherry inh 1.7% and VACV Venus inh -2.1%.
For CCOc1ccc(N2C(=O)S/C(=C\c3cccn3C)C2=O)cc1 the results were VACV mCherry inh -17.9% and VACV Venus inh 1.1%.
For O=[N+]([O-])c1ccccc1S(=O)(=O)N1CCN(Cc2ccc3c(c2)OCO3)CC1 the results were VACV mCherry inh 4.5% and VACV Venus inh 0.1%.
Screening O=C(NCc1ccccc1)c1ccc2c(c1)S(=O)(=O)c1cc(Cl)ccc1C2=O returned VACV mCherry inh -1.0% and VACV Venus inh -1.8%.
For Cc1ccc(CSCCNC(=O)c2ccc(NS(C)(=O)=O)cc2)cc1 the results were VACV mCherry inh -23.8% and VACV Venus inh -1.7%.
Screening Clc1ccc(CNCCCSc2ncccn2)cc1 returned VACV mCherry inh -13.9% and VACV Venus inh -1.2%.
Cc1cc(N)n2ncc(-c3cccc(Br)c3)c2n1 was read as VACV mCherry inh -9.3% and VACV Venus inh -14.9%.
Screening O=C(Nc1ccccc1F)c1ccc(Cn2cc(Br)cn2)cc1 returned VACV mCherry inh -6.7% and VACV Venus inh -26.2%.
CCOC(=O)c1c(NC(=O)C2COc3ccccc3O2)sc(C(C)=O)c1C (configuration not stated) was read as VACV mCherry inh -14.8% and VACV Venus inh -17.8%.
Screening CCOC(CNC(=O)c1ccc(N2CCc3ccccc32)c([N+](=O)[O-])c1)OCC returned VACV mCherry inh -27.5% and VACV Venus inh -13.6%.
For O=C(NNC(=O)C12CC3CC(CC(C3)C1)C2)c1ccccn1 the results were VACV mCherry inh 10µM* and VACV Venus inh inconclusive.
For CCN1CCN(C(=S)Nc2ccc3nc(N4CCN(C)CC4)cc(C)c3c2)CC1 the results were VACV mCherry inh -24.6% and VACV Venus inh 12.6%.
For O=S1(=O)CCC(NC(=S)SCc2ccccc2Br)C1 (configuration not stated) the results were VACV mCherry inh -5.4% and VACV Venus inh -9.1%.
`OC(c1ccc(F)c(F)c1)c1nc(-c2cccc(F)c2)cs1` (configuration not stated) gave VACV mCherry inh 47.3%[activator] and VACV Venus inh -6.9%.
Screening CC(C)Cn1cc(NC(=O)NCc2ccccc2)c2ccccc2c1=O returned VACV mCherry inh -4.6% and VACV Venus inh -3.9%.
CC1(C)CC(=O)C2=C(C1)OC(c1ccncc1)C(C#N)=C2N (configuration not stated) was read as VACV mCherry inh -6.1% and VACV Venus inh -3.2%.
Screening CC1CCCN(c2ccc(C(=O)NCc3cccs3)cn2)C1 (configuration not stated) returned VACV mCherry inh -5.2% and VACV Venus inh -26.2%.
Screening COc1ccc(NC(=O)c2ccc(-c3ccc(-c4noc(C)n4)cc3C)cc2)cc1N1CCN(C)CC1 returned VACV mCherry inh -14.1% and VACV Venus inh inconclusive.
CCc1nnc(NC(=O)COc2ccc3ccccc3c2)s1 was read as VACV mCherry inh inactive and VACV Venus inh -2.4%.
Cc1cc(=O)oc2cc(OCC(=O)NCC3CCCO3)ccc12 (configuration not stated) was read as VACV mCherry inh inactive and VACV Venus inh -1.0%.
`COCCN(C(=O)c1cc2c(s1)CCC2)c1c(N)n(CC(C)C)c(=O)[nH]c1=O` gave VACV mCherry inh -9.6% and VACV Venus inh -2.7%.
Screening CC1=C(C(=O)N2CCCCCC2)CC(CC(=O)NCCN2CCOCC2)C(=O)N1Cc1ccc(F)cc1 (configuration not stated) returned VACV mCherry inh -9.4% and VACV Venus inh -8.1%.
For COc1cc(CN=C(C)c2c(O)n(C)c(=O)n(C)c2=O)cc(OC)c1 the results were VACV mCherry inh -18.9% and VACV Venus inh -20.0%.
O=C(CSc1nccn1Cc1ccccc1)Nc1nc2ccccc2s1 was read as VACV mCherry inh -4.5% and VACV Venus inh -4.2%.
For Cc1cc(Cl)ccc1NC(=S)NCCc1ccc(Cl)cc1 the results were VACV mCherry inh inconclusive and VACV Venus inh -21.4%.
Screening C#CCOCCOCCOCCNc1nc(N2CCN(C(=O)[C@H]([C@@H](C)CC)n3cc([C@@H](N)CC(C)C)nn3)CC2)nc(N2CCN(C(=O)[C@H](CCCCN)n3cc([C@@H](N)CC(C)C)nn3)CC2)n1 returned VACV mCherry inh -12.8% and VACV Venus inh -10.1%.
For Cc1ccc(-n2[nH]c(C)c(/C=N/N3C(=O)c4cccc5cccc(c45)C3=O)c2=O)cc1 the results were VACV mCherry inh -9.2% and VACV Venus inh -5.2%.
Cc1ccc(Cn2c(/C=C/c3ccco3)nc3ccccc32)cc1 was read as VACV mCherry inh -10.7% and VACV Venus inh 10.0%.
CCOC(=O)c1cc(-c2ccccc2)nn1Cc1cc(CC)no1 was read as VACV mCherry inh -15.6% and VACV Venus inh -23.0%.
For C=CCN(CC=C)C(=O)Cn1cnc([N+](=O)[O-])n1 the results were VACV mCherry inh -14.8% and VACV Venus inh -11.0%.
COC(=O)C1=C(C)N=C2SCCC(=O)N2C1/C=C/c1ccccc1 (configuration not stated) was read as VACV Venus inh -20.4%.
`CCCNC(=O)c1ccc(Cn2cc(-c3ccc(OC)cc3)nc2C(C)N)cc1` (configuration not stated) gave VACV mCherry inh -10.0% and VACV Venus inh -19.9%.
For Cc1ccc(S(=O)(=O)CCC(=O)OCC(=O)Nc2cc(F)ccc2C)cc1 the results were VACV mCherry inh inactive and VACV Venus inh -21.6%.
`Cc1ccc(NC(=S)C2=C(O)c3sccc3N(C)S2(=O)=O)cc1` gave VACV mCherry inh -8.8% and VACV Venus inh -1.8%.
`NC(=O)CN1C(=O)NC(c2ccccc2)(c2ccccc2)C1=O` gave VACV mCherry inh -9.1% and VACV Venus inh 14.7%.
Screening COc1ccc(-n2c(SC3CCOC3=O)nc3ccccc32)cc1 (configuration not stated) returned VACV Venus inh 8.1%.
`CC(C)[C@H](NC(=O)c1ccccc1Cl)C(=O)OCc1cc(=O)n2cc(Br)ccc2n1` gave VACV mCherry inh -2.0% and VACV Venus inh -5.9%.
For Cc1cc(C(=O)N/N=C/c2cc(Cl)cc([N+](=O)[O-])c2O)c2ccccc2n1 the results were VACV mCherry inh -8.8% and VACV Venus inh -20.5%.
CCSc1nnc(NC(=O)C(CC)Oc2ccccc2)s1 (configuration not stated) was read as VACV mCherry inh -1.7% and VACV Venus inh -4.0%.
For Cc1cc2nc(-c3ccc(Cl)cc3)c(Cc3cccc(Cl)c3)n2c(C)c1Br the results were VACV mCherry inh 44.8%[activator] and VACV Venus inh 18.9%.
For COc1ccccc1NC(=O)N1CC=C(c2c[nH]c3ccccc23)CC1 the results were VACV mCherry inh -7.9% and VACV Venus inh -9.0%.
`COc1ccccc1-n1cc(CN2CCN(C3CCCCC3)C(CCO)C2)cn1` (configuration not stated) gave VACV mCherry inh -6.5% and VACV Venus inh -5.1%.
O=C(c1[nH]c(C(F)(F)F)nc1-c1ccccc1)N1CCC(C(O)(c2ccccc2)c2ccccc2)CC1 was read as VACV mCherry inh 6.4% and VACV Venus inh 4.3%.
Screening O=C(CSc1nc2ccccc2s1)Nc1ccc(Cl)c(S(=O)(=O)N2CCOCC2)c1 returned VACV mCherry inh -16.9% and VACV Venus inh -27.5%.
For Cc1ccc2c(c1)c(=O)c(C(=O)c1ccncc1)cn2CC(=O)Nc1ccc(C(C)C)cc1 the results were VACV mCherry inh -1.7%[7.34 µM] and VACV Venus inh -0.6%[7.34 µM].
`O=C(OCC(=O)N1CCCC1)c1ccc(S(=O)(=O)N2CCOCC2)cc1` gave VACV mCherry inh -1.5% and VACV Venus inh -8.9%.
Screening CC(C)OC(=O)N(C)C[C@@H]1OCc2cnnn2CCCC(=O)N([C@H](C)CO)C[C@@H]1C returned VACV mCherry inh -19.3% and VACV Venus inh -11.6%.
`CCOC(=O)C1=C(CNCc2ccc(Cl)cc2)NC(=O)NC1c1ccccc1` (configuration not stated) gave VACV mCherry inh -7.2% and VACV Venus inh -4.2%.
CCC(c1nnnn1CCOC)N1CCN(C(=O)c2ccco2)CC1 (configuration not stated) was read as VACV Venus inh inconclusive.
`COc1ccc(-c2noc(-c3ccccc3-c3ccccc3)n2)cc1OC` gave VACV mCherry inh -13.8% and VACV Venus inh -12.2%.
Screening CCN(CC)CCN(C(=O)c1ccc2ccccc2c1)c1nc2cc3c(cc2s1)OCO3 returned VACV mCherry inh inconclusive and VACV Venus inh -8.8%.
COc1ccc(-c2cc(C(C)=O)c(C)n2CCC(=O)NCc2ccc(C)cc2)cc1 was read as VACV mCherry inh -12.8% and VACV Venus inh -15.2%.
CCOC(=O)[C@@H]1[C@H]2COc3cc(OC)ccc3[C@H]2N2C(=O)N(c3ccc(C(F)(F)F)cc3)C(=O)[C@@]12C was read as VACV mCherry inh -13.5% and VACV Venus inh -17.2%.

Screening data: PubChem BioAssay, National Center for Advancing Translational Sciences (NCATS)
